Screening data from PubChem BioAssay.
IkB sig inh: IkB Signaling; ABC-DLBCL IkBa-CBG/CBR dual luciferase ratio, 4 h; response scale: scaled: untreated 0%, proteasome inhibitor 100%; Potency, µM (titrated, usually from 57.1 µM), inactives show top-dose IkBa stabilization activation; hit rate 0.04% among 110,000; active = well fitted curve in the direction sought with a large enough effect in the signal ratio, not every such curve was filed as active; inconclusive = small, poorly fitted or top-dose-only effect, or a change in a side signal; the % refers to the signal ratio;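 note: the direction sought is a rising ratio; 0% = basal untreated cells and 100% = reference inhibitor full response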
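Luminescence ratio of IκBα-fused green versus native red beetle luciferase in OCI-Ly3 cells, 4 h post-doxycycline with compound; red signal alone, scaled from basal (0%) to zero light (-100%), flagged nonspecific or cytotoxic effects.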
Imprint erasure: qHTS Assay for Compounds that Induce Erasure of Genomic Imprints. mouse ES Peg3-LacZ reporter, beta-gal luminescence, 40 h. Potency, µM (doses to about 60.7 µM), inactives show top-dose activity change, positive = activation, actives largely listed as activators. hit rate 0.02% among 110,000; active = well fitted activation curve with a large enough effect; inconclusive = small, poorly fitted or top-dose-only effect; inactive = no such curve, though single readings can be large or run the other way;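 note: 0% = negative control wells on the plate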
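Gelatin-coated wells received 300 freshly trypsinized female ES cells with a Peg3LacZ-Neo reporter on the maternal allele, then incubated 40 hours at 37C. BetaGlo was added for 5 minutes at room temperature before a single luminescence read.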
* hit, by the source's call; u = inconclusive; x = no result given; & = joins results of further samples; [ ] = dose if it differs, or a comment. Potency is the fitted concentration of half-maximal effect.

SMILES	IkB sig inh	Imprint erasure
N=C(N)c1ccc(OCCCCCOc2ccc(C(=N)N)cc2)cc1	-2.5%	-46.0%[inhibitor]
COc1ccc(-c2cc(=O)c3c(OC)c(OC)c(OC)c(OC)c3o2)cc1OC	x	-5.3%
CCN(C(=O)N(CC)c1ccccc1)c1ccccc1	-0.5%	-7.1%
O=C(CCS(=O)(=O)c1ccc(Br)cc1)N1CCN(c2ccccc2F)CC1	-0.6%	10.6%
CC(C)NCC(O)COc1cccc2ccccc12 (centres undefined)	0.7%	-14.9%&-19.9%&-20.8%&-14.7%
NC(=O)c1cc[n+](CC2=C(C(=O)[O-])N3C(=O)[C@@H](NC(=O)Cc4cccs4)[C@@H]3SC2)cc1	2.3%[25.6 µM]	-5.0%[16.8 µM]
Cc1occc(=O)c1O	-0.7%	20.3%&-7.8%
O=C(O)C1CC=CCC1C(=O)NCc1cn2ccccc2n1 (centres undefined)	1.7%	1.6%
Cc1cn(C2CC(N=[N+]=[N-])C(CO)O2)c(=O)[nH]c1=O (centres undefined)	x	9.2%
C[C@@H]1[C@H]2CC[C@@H]3[C@@H]4CC=C5C[C@@H](N(C)C)CC[C@]5(C)[C@@H]4CC[C@@]32CN1C	0.3%[25.6 µM]	3.0%[16.8 µM]
OCC(CO)(CBr)CBr	-0.1%	0.5%
NCCC[C@@H](N)C(=O)O	-0.2%[11.4 µM]	-2.1%[10.9 µM]
CNC1C(O)C(O[C@H]2C(O)[C@@H](OC3OC(CN)=CCC3N)[C@H](N)C[C@@H]2N)OC[C@]1(C)O (some centres undefined)	x	6.6%
COc1cc(C2c3cc4c(cc3C(OC3OC5COC(C)O[C@@H]5C(O)C3O)C3COC(=O)C23)OCO4)cc(OC)c1O (some centres undefined)	x	-33.4%[inhibitor]
CN1C2CC(OC(=O)C(CO)c3ccccc3)CC1C1OC12 (centres undefined)	x	-8.2%
C=CC(=O)OCC(CO)(COC(=O)C=C)COC(=O)C=C	u	-22.2%
O=C1N=C(O)CN1/N=C\c1ccc(-c2ccc([N+](=O)[O-])cc2)o1	-0.3%	-6.3%
O=C(O)c1cc(=O)c2ccccc2[nH]1	0.1%&2.3%	4.8%&2.4%&8.6%&2.1%
CC(C)[N+]1(C)[C@@H]2CC[C@H]1CC(OC(=O)[C@@H](CO)c1ccccc1)C2 (some centres undefined)	0.7%	-7.4%
CC/C=C\C/C=C\C/C=C\CCCCCCCC(=O)O	7.9%	-9.6%&-5.0%&-11.2%
CCN[C@@H]1C[C@H](C)S(=O)(=O)c2sc(S(N)(=O)=O)cc21	-0.8%[25.6 µM]	-11.5%[16.8 µM]
CCCCCCC[N+](CC)(CC)CCCCc1ccc(Cl)cc1	-0.6%[25.6 µM]	-27.1%[16.8 µM]
N#CC[N+]1(Cc2ccccn2)CCCC1	2.0%[11.4 µM]	-13.1%[10.9 µM]
O=C(O)CN(CCOCCOCCN(CC(=O)O)CC(=O)O)CC(=O)O	9.0%	-7.3%
Cc1ccc(C)c(OCCCC(C)(C)C(=O)O)c1	-1.0%	-17.7%
The list continues.
SMILES	IkB sig inh	Imprint erasure
CNC(=O)Oc1ccc2c(c1)[C@@]1(C)CCN(C)[C@@H]1N2C	0.0%	-10.1%
Cc1cn([C@H]2C=C[C@H](CO)O2)c(=O)[nH]c1=O	-1.5%	x
NCCS(=O)(=O)O	3.2%&0.1%&-8.6%	-9.2%&-2.6%&-2.4%
O=C1OCCN1/N=C\c1ccc([N+](=O)[O-])o1	0.7%[25.6 µM]	-9.7%[16.8 µM]
CC(=O)C1CCC2C3CCC4=CC(=O)CC[C@@]4(C)C3CC[C@]12C (some centres undefined)	x	-11.8%
Cc1ccc(S(=O)(=O)N[C@H](C(=O)N2CCC(C(=O)N3CCC[C@H]3C(=O)O)CC2)C(C)C)cc1	1.5%	18.0%
O=C(O)CCSSCCC(=O)O	-0.4%	-5.6%
Nc1ccn([C@@H]2O[C@H](CO)[C@@H](O)C2O)c(=O)n1 (some centres undefined)	x	-28.3%
CN/C(=C\[N+](=O)[O-])NCCSCc1csc(CN(C)C)n1	0.9%[25.6 µM]	0.0%[16.8 µM]
CO[C@@]12C[C@@H](COC(=O)c3cncc(Br)c3)CN(C)[C@H]1Cc1cn(C)c3cccc2c13	u	-11.2%
CC[C@]1(C)CC(=O)NC1=O	-0.2%[25.6 µM]	-6.8%[16.8 µM]
Cc1ccc2oc(=O)ccc2c1	-4.2%	-5.7%
CCCn1c(=O)c(C)cn2nc(N)nc12	0.1%	3.5%
Clc1ccc(-c2noc(CN3CCN(c4ccccc4)CC3)n2)cc1	-2.5%	-16.9%
Cn1c(=O)c2c(ncn2C)n(C)c1=O	0.7%	-4.9%&-14.6%&-1.2%&7.0%
N[C@H](CC(=O)O)C(=O)O	0.2%&4.4%	-3.4%
CC1CC2C3CCC4=CC(=O)C=C[C@@]4(C)[C@]3(F)C(O)C[C@]2(C)[C@]1(O)C(=O)CO (some centres undefined)	x	-22.9%&-5.9%
N[C@@H](Cc1ccc(O)cc1)C(=O)O	x	16.6%
CC1CCC(C(C)C)C(O)C1 (centres undefined)	x	-6.8%
Cn1c(NCCN2CCOCC2)nc2c1c(=O)n(Cc1cccc(Cl)c1)c(=O)n2C	2.8%	-11.1%
CC1(C)CC(=O)C2=C(C1)OC(N)=C(C#N)C2c1ccccc1OC(=O)N1CCOCC1 (centres undefined)	0.4%	-13.0%
CC(C)(C(=O)O)c1ccc(C(O)CCCN2CCC(C(O)(c3ccccc3)c3ccccc3)CC2)cc1 (centres undefined)	x	-6.9%&1.2%&-8.9%
CCCCCCCCCCCCOCC1CO1 (centres undefined)	-1.8%	-0.4%
CC(=O)OCC(=O)[C@@]1(O)CCC2C3CCC4=CC(=O)C=CC4(C)C3C(O)C[C@]21C (some centres undefined)	x	1.1%
O=C(CSCc1ccc(F)cc1)N1CCN(c2ccccc2)CC1	-4.1%	-8.4%[10.9 µM]

15 compounds from above, sorted by length of the SMILES, ascending.
SMILES	IkB sig inh	Imprint erasure
OCC(CO)(CBr)CBr	-0.1%	0.5%
CC[C@]1(C)CC(=O)NC1=O	-0.2%[25.6 µM]	-6.8%[16.8 µM]
CCCn1c(=O)c(C)cn2nc(N)nc12	0.1%	3.5%
O=C(O)c1cc(=O)c2ccccc2[nH]1	0.1%&2.3%	4.8%&2.4%&8.6%&2.1%
CC/C=C\C/C=C\C/C=C\CCCCCCCC(=O)O	7.9%	-9.6%&-5.0%&-11.2%
O=C1OCCN1/N=C\c1ccc([N+](=O)[O-])o1	0.7%[25.6 µM]	-9.7%[16.8 µM]
O=C(CSCc1ccc(F)cc1)N1CCN(c2ccccc2)CC1	-4.1%	-8.4%[10.9 µM]
CN/C(=C\[N+](=O)[O-])NCCSCc1csc(CN(C)C)n1	0.9%[25.6 µM]	0.0%[16.8 µM]
Nc1ccn([C@@H]2O[C@H](CO)[C@@H](O)C2O)c(=O)n1 (some centres undefined)	x	-28.3%
O=C(CCS(=O)(=O)c1ccc(Br)cc1)N1CCN(c2ccccc2F)CC1	-0.6%	10.6%
CCN[C@@H]1C[C@H](C)S(=O)(=O)c2sc(S(N)(=O)=O)cc21	-0.8%[25.6 µM]	-11.5%[16.8 µM]
COc1ccc(-c2cc(=O)c3c(OC)c(OC)c(OC)c(OC)c3o2)cc1OC	x	-5.3%
O=C1N=C(O)CN1/N=C\c1ccc(-c2ccc([N+](=O)[O-])cc2)o1	-0.3%	-6.3%
COc1cc(C2c3cc4c(cc3C(OC3OC5COC(C)O[C@@H]5C(O)C3O)C3COC(=O)C23)OCO4)cc(OC)c1O (some centres undefined)	x	-33.4%[inhibitor]
C[C@@H]1[C@H]2CC[C@@H]3[C@@H]4CC=C5C[C@@H](N(C)C)CC[C@]5(C)[C@@H]4CC[C@@]32CN1C	0.3%[25.6 µM]	3.0%[16.8 µM]

Other results
SMILES	IkB sig inh	Imprint erasure
O=C(O)CCCC[C@@H]1SC[C@H]2NC(=O)N[C@H]12	0.3%[11.4 µM]	x
Cc1cnc(NC(=O)C2C(=O)c3ccccc3S(=O)(=O)N2C)s1 (centres undefined)	x	-9.5%
Cc1ccc(C(=O)O)cc1[N+](=O)[O-]	-0.9%	-0.4%
CC1(C)S[C@@H]2[C@H](NC(=O)[C@H](N)c3ccccc3)C(=O)N2[C@H]1C(=O)O	-1.9%	-13.1%&2.2%
Cc1ccc(S(=O)(=O)NC(=O)NN2CCCCCC2)cc1	0.9%[25.6 µM]	14.0%
CC(=O)OC1CC(C)OC(C)O1 (centres undefined)	0.6%	3.8%
CCOC(=O)c1c(C)oc2c(F)c(F)c(F)c(F)c2c1=O	u	5.4%
Cc1ncc([N+](=O)[O-])n1CCO	-0.6%	-8.5%
CC/C(=C(\c1ccccc1)c1ccc(OCCN(C)C)cc1)c1ccc(O)cc1	u	-23.0%
COc1ccc(N2CCN(C(=O)CC3NC4CCCCC4NC3=O)CC2)cc1 (centres undefined)	4.1%	-6.7%
CC1(C)SC2C(NC(=O)C(N)c3ccccc3)C(=O)N2C1C(=O)O (centres undefined)	x	0.6%
CCCC(=O)O[C@]1(C(=O)CO)CCC2[C@@H]3CCC4=CC(=O)CC[C@]4(C)C3C(O)C[C@]21C (some centres undefined)	x	-10.0%
CN[C@H]1[C@H](O)[C@@H](O[C@@H]2[C@H](O)[C@@H](O[C@H]3OC(CN)=CC[C@H]3N)[C@@H](N)C[C@H]2N)OC[C@@]1(C)O	2.2%[25.6 µM]	4.4%[16.8 µM]
NC(=O)N1c2ccccc2C=Cc2ccccc21	-0.8%	5.7%
Cn1cnc2c1c(=O)[nH]c(=O)n2C	0.6%[25.6 µM]	-0.2%
CC(=O)OCC1=C(C(=O)O)N2C(=O)[C@@H](NC(=O)CSc3ccncc3)[C@H]2SC1	x	-10.6%
C[C@@H]1C[C@H]2[C@@H]3C[C@H](F)C4=CC(=O)C=C[C@@]4(C)[C@]3(F)[C@H](O)C[C@]2(C)[C@@]1(O)C(=O)CO	14.4%[25.6 µM]	8.6%[16.8 µM]
CC[N+](C)(C)c1cccc(O)c1	0.3%[25.6 µM]	-6.9%
O=[N+]([O-])c1ccc(Cl)cc1Cl	2.4%	-3.2%
CN1CCCC1c1cccnc1 (centres undefined)	x	3.4%
CC(=O)OCC(=O)[C@@]1(O)CC[C@H]2[C@@H]3CCC4=CC(=O)CC[C@]4(C)[C@@H]3C(=O)C[C@@]21C	x	0.8%
Cc1ncc([N+](=O)[O-])n1C[C@H](O)CCl	-1.7%[25.6 µM]	-6.2%[16.8 µM]
Cc1ccc(SCN2CCCCC2)cc1 (tested in a mixture with another compound)	0.0%[11.4 µM]	-5.2%[10.9 µM]
OCCNCCO	1.1%	2.1%
Cc1ccc(C#N)cc1	-1.4%	3.8%
Continued:
SMILES	IkB sig inh	Imprint erasure
COS(C)(=O)=O	-0.1%	8.1%&-0.6%
CC(C)c1ccc(NC(=O)COC(=O)C2=COCCO2)cc1	-1.0%	-5.6%
CC(=O)Nc1ccc(OC(=O)c2ccccc2O)cc1	x	-11.5%
NC(N)=[N+]1CCc2ccccc2C1	-1.6%	-8.9%
O=C(OCc1ccccc1)c1ccccc1	x	-10.5%
CO/N=C1\CN(c2nc3c(cc2F)c(=O)c(C(=O)O)cn3C2CC2)CC1CN (centres undefined)	x	-22.3%
Cc1cnc(NC(=O)C2=C(O)c3ccccc3S(=O)(=O)N2C)s1	35.0%	-3.5%&-3.8%
CN=C(NC#N)NCCSCc1nc[nH]c1C	0.6%&-0.2%&-4.1%	9.9%&-4.8%&0.1%&8.2%&-7.5%
NCCNCCNCCNCCN	-2.5%	-10.9%
CCOC(=O)O[C@@H](C)OC(=O)[C@@H]1N2C(=O)[C@@H](NC(=O)[C@@H](N)c3ccccc3)[C@H]2SC1(C)C	2.1%[25.6 µM]	-4.7%[16.8 µM]
CC(C)C1CCC(C(=O)NC(Cc2ccccc2)C(=O)O)CC1 (centres undefined)	x	-5.1%
CC(N)=O	-0.2%	-6.0%
CC(=O)Nc1ccc(N)cc1	0.4%	-2.3%
CCCCC(CC)CNCC(CC)CCCC (centres undefined)	2.3%	13.6%
CCO[C@H]1O[C@@H]([C@H](COCc2ccccc2)OCc2ccccc2)[C@@H](OCc2ccccc2)[C@H]1O	-0.5%[25.6 µM]	-15.4%[16.8 µM]
CC(=O)OCC(=O)[C@@]12OC(C)(C)OC1CC1C3CC(F)C4=CC(=O)C=C[C@@]4(C)[C@@]3(F)C(O)C[C@]12C (some centres undefined)	x	-9.2%
O=C(Cc1ccc(Cl)cc1)Nc1ccc(N2CCN(C(=O)c3ccco3)CC2)cc1	0.5%	-5.5%
O=C(O)c1cc(NS(=O)(=O)c2cccc3ccccc23)ccc1O	-0.1%	-3.7%
O=c1[nH]cnc2c1ncn2[C@H]1CC[C@@H](CO)O1	-0.1%	11.4%&0.5%
O=C1CSC2(CCN(CCCN3c4ccccc4Sc4ccc(Cl)cc43)CC2)N1	3.1%[11.4 µM]	-15.9%[10.9 µM]
COC1=CC(=O)C[C@@H](C)[C@]12Oc1c(Cl)c(OC)cc(OC)c1C2=O	-2.6%	-21.7%&-11.1%
CNC(=O)Oc1ccc2c(c1)[C@@]1(C)CCN(C)C1N2C (some centres undefined)	x	51.7%&-8.4%&-1.6%
Cc1cn([C@H]2C[C@H](N=[N+]=[N-])[C@@H](CO)O2)c(=O)[nH]c1=O	-0.7%	7.4%
CCC[C@H]1C[C@H](C(=O)N[C@@H]([C@H]2O[C@@H](SC)[C@@H](O)[C@@H](O)[C@@H]2O)[C@H](C)Cl)N(C)C1	1.9%[25.6 µM]	3.1%[16.8 µM]

The list is partial; most or all hits stand in other tables.
